High-throughput results as filed in PubChem BioAssay.
N370S GC mod: qHTS Assay for Inhibitors and Activators of N370S glucocerebrosidase as a Potential Chaperone Treatment of Gaucher Disease; Lysosomal acid glucosylceramidase (Homo sapiens), P04062; N370S GC spleen homogenate, 4MU-glucoside fluorescence; Potency, µM (doses to about 59.4 µM), for the others: top-dose activity change, negative = inhibition, most hits filed as inhibitors; actives 0.092% (n = 330,000); AID 2101, 2009;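 note: 0% = full enzyme activity and -100% = no enzyme basal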
FEN1 inh: qHTS Assay for the Inhibitors of Human Flap endonuclease 1 (FEN1); actives 0.35% (n = 390,000); Potency, µM (series often up to 114 µM), without a hit: at the highest dose activity change, negative = inhibition, hits mostly inhibitors; Recombinant FEN1 flap cleavage, fluorescence, 15 min; P39748; AID 588795, 2011; note: nearly all actives have a fitted effect of over 65% in size
Target sequence (P39748 whole entry, looked up): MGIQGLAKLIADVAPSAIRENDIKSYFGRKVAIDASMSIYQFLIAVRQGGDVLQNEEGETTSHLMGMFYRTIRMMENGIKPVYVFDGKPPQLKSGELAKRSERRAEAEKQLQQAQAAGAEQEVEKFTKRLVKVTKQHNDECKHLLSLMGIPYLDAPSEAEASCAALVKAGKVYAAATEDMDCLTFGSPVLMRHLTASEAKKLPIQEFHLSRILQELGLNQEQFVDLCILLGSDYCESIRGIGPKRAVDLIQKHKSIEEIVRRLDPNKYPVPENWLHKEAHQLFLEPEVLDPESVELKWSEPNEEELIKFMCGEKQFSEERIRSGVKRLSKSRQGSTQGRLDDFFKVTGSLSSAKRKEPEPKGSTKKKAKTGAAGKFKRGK
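Nuclease activity of 10 nM FEN1 was measured after 15 min of room-temperature exposure to titrated compounds, by adding 50 nM flap substrate and reading plates at 0 and 15 min.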
The depositor's hits bear a star; ? = inconclusive; / = not tested or not shown; & = joins results of further samples. Calls come from the whole dose curve; as a rule, active = well fitted curve in the direction sought with a large enough effect; inconclusive = small, poorly fitted or top-dose-only effect, or another doubt; inactive = no such curve, though single readings can be large; an effect the other way counts as inactive or inconclusive. Unless noted, % is set by controls: 0 for no effect and ±100 for the full control effect; potency is the fitted concentration of half-maximal effect. The list is partial, and most or all hits are left out here.

Every second line gives: N370S GC mod	FEN1 inh
CCN(CC)S(=O)(=O)c1ccc(C(=O)N=c2sc3cccc(OC)c3n2C)cc1
 : /	0%
CCN1CCCC1CN(Cc1cc2ccc(C)cc2[nH]c1=O)C(=S)Nc1ccccc1C(=O)OC (configuration not stated)
 : -5%	-1%
COCCNC(=O)NC(=O)COC(=O)C1(c2ccc(Cl)cc2)CC1
 : 18%	-3%
COc1nc(Nc2nc3ccccc3c(=O)[nH]2)nc2ccc(C)cc12
 : -7%	?
O=C(COc1ccc(S(=O)(=O)NCc2ccccc2)cc1)NCc1cccnc1
 : -1%	21%
Cc1nn(Cc2ccc([N+](=O)[O-])cc2)c(=O)n1-c1cccc(F)c1
 : 0%	-11%
NC(=O)c1ccc(NC(=O)c2cccc3c2OCCCO3)cc1
 : 3%	8%
NS(=O)(=O)c1ccc(-c2ccc(C=NC3CCS(=O)(=O)C3)o2)cc1 (configuration not stated)
 : -6%	1%
Cc1ccc2nc(SC(C(=O)Nc3ccc(F)cc3)c3ccccc3)[nH]c2c1 (configuration not stated)
 : ?	4%
Cc1ccc(CNC(=O)CN(C2CCCCC2)S(C)(=O)=O)cc1
 : -9%	3%
CCCCN(c1ccccc1)S(=O)(=O)c1ccc2c(c1)CC(C)N2C(=O)C1CC1 (configuration not stated)
 : /	10%
O=[N+]([O-])c1ccc(N2CCN(S(=O)(=O)c3ccccc3)CC2)cc1NCc1cccnc1
 : -21%	-2%
CCS(=O)(=O)N1CCc2cc(C(=O)Nc3cc(OC)c(Cl)cc3OC)ccc21
 : /	2%
CC1CC(C)CN(S(=O)(=O)c2ccc(NC(=O)C3COc4ccccc4O3)cc2)C1 (configuration not stated)
 : 23%	3%
Cc1ccc(S(=O)(=O)c2cn(C)c3cc(N4CCN(C)CC4)c(F)cc3c2=O)c(C)c1
 : -7%	-8%
Cn1c(N)c(C(=O)COC(=O)c2cccc(S(=O)(=O)N3CCOCC3)c2)c(=O)n(C)c1=O
 : /	-1%
O=C(O)c1ccc(S(=O)(=O)N(Cl)Cl)cc1
 : 3%&-4%	/
CC[C@H](CO)Nc1nc(NCc2ccccc2)c2ncn(C(C)C)c2n1
 : -9%&0%&0%	/
Cc1ccc(S(=O)(=O)N2CCN(C(=O)C(Cc3ccccc3)NC(=O)c3ccccc3)CC2)cc1 (configuration not stated)
 : /	-4%
COCCNC(=O)c1ccc2c(=O)n(CCOC)c(=O)[nH]c2c1
 : ?	-11%
Cc1nc(SCC(=O)c2ccccc2)c(C#N)c(-c2ccco2)c1C(=O)NCc1ccco1
 : 5%	7%
O=C(NCc1ccco1)C(=S)N1CCCCC1
 : 5%	5%
O=C(O)CCCNc1ccc(S(=O)(=O)Nc2ccccc2C(=O)O)cc1C(=O)O
 : 3%	-7%
CN(C)c1ccc(C(CC(=O)O)NC(=O)c2ccc(Cl)cc2)cc1 (configuration not stated)
 : -5%	-16%
COc1ccccc1CNS(=O)(=O)c1cc(CN2C(=O)c3cccnc3C2=O)ccc1OC
 : 6%	1%
C=C1CCC(N(O)c2cc(C)on2)C(=C)CCC2C1CC2(C)C (configuration not stated)
 : /	-8%
CCn1c(SCC(=O)N2CCC(C)CC2)nc2c(c1=O)SC(C)C2 (configuration not stated)
 : -3%	-3%
COc1ccccc1CNc1ccc(C(=O)O)cc1
 : -4%	-1%
CCN(CC)C(=O)CSc1ccc(C(F)(F)F)cc1[N+](=O)[O-]
 : 3%	-9%
CCCCN(C(=O)C1CC(=O)N(c2ccc3c(c2)OCCO3)C1)c1c(N)n(CCC)c(=O)[nH]c1=O (configuration not stated)
 : /	-1%
CC1CCn2c(nc3cc(C(=O)NCCc4ccc(Cl)cc4)ccc32)C1 (configuration not stated)
 : /	12%
CCN(CCn1cccn1)Cc1nc(-c2ccc(C(=O)OC)cc2)no1
 : 6%	-4%
CC(=O)Nc1sc(C)c(C)c1C(=O)OCC(=O)N(CCC#N)c1cc(C)cc(C)c1
 : 2%	12%
C#CCSc1nnc(-c2ccc([N+](=O)[O-])cc2)o1
 : -2%	-13%
O=C(CCNC(=O)c1ccco1)NCCc1c[nH]c2ccccc12
 : /	-9%
COc1ccc(NC(=O)CSc2oc(-c3cccs3)nc2S(=O)(=O)c2ccc(C)cc2)c(OC)c1
 : /	-16%
C[C@H](NC(=O)c1nc[nH]c1C(=O)N[C@@H](Cc1ccccc1)C(=O)OC(C)(C)C)C(=O)OC(C)(C)C
 : 25%	-11%
CC(=O)O[C@H]1C(=O)[C@]2(C)[C@H]([C@H](OC(=O)c3ccccc3)[C@]3(O)C[C@H](OC(=O)[C@H](O)[C@@H](NC(=O)c4ccccc4)c4ccccc4)C(C)=C1C3(C)C)[C@]1(OC(C)=O)CO[C@@H]1C[C@@H]2O
 : /	9%
CCCc1cc(=O)[nH]c2nnc(SCC)n12
 : /	19%
Cc1nn(C)c(C)c1C(C)NC(=O)c1cc(COc2ccc(F)c(F)c2)on1 (configuration not stated)
 : -1%	-9%
O=C(Nc1cccc2oc(=O)ccc12)c1ccc([N+](=O)[O-])cc1[N+](=O)[O-]
 : 5%	-17%
CCOc1cc(C2C(C#N)=C(N)Oc3n[nH]c(C)c32)ccc1OCCN1CCOCC1 (configuration not stated)
 : -3%	-1%
NC(=O)C(=O)NCCCN1CCOCC1
 : -2%	-7%
COc1cc(C2Nc3ccccc3C(=O)N2c2ccc(Cl)cc2)c(Cl)cc1OCC(=O)O (configuration not stated)
 : 11%	8%
COc1ccc2nc(NC(=O)C3=NN(c4ccccc4)C(=O)CC3)sc2c1
 : -10%	6%

The results go on.
molecule	N370S GC mod	FEN1 inh
COc1ccc(-n2nc3c(c2NC(=O)CCCCl)CSC3)cc1	1%	18%
Nc1c(N(Cc2ccccc2)C(=O)COc2ccc(F)cc2)c(=O)[nH]c(=O)n1Cc1ccccc1	3%	-6%
O=C(Nc1ccc([N+](=O)[O-])cc1)c1cncc(Br)c1	2%	-22%
COc1cccc(NC(=O)CNC(=O)[C@@H]2Cc3ccccc3CN2C(=O)OC(C)(C)C)c1	4%	11%
CC(=O)NCCNC(=O)c1ccc2c(=O)n(CCc3ccccc3)c(=O)[nH]c2c1	/	-12%
c1cncc(-c2nnc(SCc3cccc4ccccc34)o2)c1	-1%	-19%
COC(=O)c1cc(NS(=O)(=O)c2ccc(NCc3cccnc3)c([N+](=O)[O-])c2)cc(C(=O)OC)c1	-1%	-6%
COc1ccc(/C=C(/C(=O)c2ccc(Cl)cc2Cl)n2cncn2)cc1	1%	-18%

Looked up above.
Result of CC(=O)NCCNC(=O)c1ccc2c(=O)n(CCc3ccccc3)c(=O)[nH]c2c1 under FEN1 inh: -12%
Result of Nc1c(N(Cc2ccccc2)C(=O)COc2ccc(F)cc2)c(=O)[nH]c(=O)n1Cc1ccccc1 under FEN1 inh: -6%

Further results
molecule	N370S GC mod	FEN1 inh
COc1ccc(S(=O)(=O)N(CC(=O)N2CCN(C)CC2)C2CCCCC2)cc1OC	-1%	5%
O=C(NCc1ccccc1)c1ccc(OCC2CCCO2)cc1 (configuration not stated)	4%	3%
COc1ccc(NC(=O)CN2CCN(S(=O)(=O)c3ccc(Br)cc3)CC2)cc1	/	-14%
COc1cccc(Nc2cc(C)nc3nc(C)nn23)c1	-2%	17%
c1ccc2c(c1)CCc1c(-c3ccncc3)n[nH]c1-2	/	15%
COc1ccc2nc(SC(C)C(=O)NC3CCCCC3)[nH]c2c1 (configuration not stated)	-1%	-3%
COc1ccccc1CNC(=O)CCn1c(=O)c2cccn2c2cccnc21	/	4%
N/C(CS(=O)(=O)c1ccccc1)=N\OC(=O)c1ccc(F)cc1	-4%	-2%

Full records from above:
Results for COc1ccccc1CNC(=O)CCn1c(=O)c2cccn2c2cccnc21 : N370S GC mod = /; FEN1 inh = 4%
Results for N/C(CS(=O)(=O)c1ccccc1)=N\OC(=O)c1ccc(F)cc1 : N370S GC mod = -4%; FEN1 inh = -2%
Results for COc1ccc(S(=O)(=O)N(CC(=O)N2CCN(C)CC2)C2CCCCC2)cc1OC : N370S GC mod = -1%; FEN1 inh = 5%

Additional records:
molecule	N370S GC mod	FEN1 inh
O=S(=O)(c1cc(Cl)ccc1Cl)n1nnc2ccccc21	-7%	-8%
O=C(O)c1ccc(N=NN2CCCC2)cc1	1%	2%
Cc1cc(=O)oc(C)c1C(=O)N1CCc2c([nH]c3ccccc23)C1C(C)C (configuration not stated)	-1%	4%
O=C(COC(=O)CNC(=O)c1ccccc1F)NCC(F)(F)F	-14%	19%
CCN(CC)S(=O)(=O)c1ccc(NC(=O)c2ccc(CN3CCOCC3)cc2)cc1	13%	7%
O=C(CSc1nnnn1-c1ccccc1)Nc1nsc(-c2ccccc2)n1	6%	1%
COC(=O)[C@@]1(Cc2ccc(OC)cc2)[C@H]2c3cc(C(=O)N4CCCC4)n(Cc4ccccn4)c3C[C@H]2CN1C(=O)c1ccccc1	-3%	/
COc1cc(CCCN2C(N)=NC[C@@H]2Cc2ccccc2)cc(OC)c1OC	4%	15%
CC1CCCCC1NC(=O)C(C)N1C(=O)c2ccccc2C1=O (configuration not stated)	/	16%
O=C1CC2(CCCC2)C(=O)N1CN1CCN(S(=O)(=O)c2ccc(Cl)c(Cl)c2)CC1	/	5%
CC(=O)Nc1cccc(N=NN2CCCCC2)c1	-2%	0%
O=C(CSc1nnnn1-c1ccccc1)NCCCN1CCCC1=O	/	-15%
CCN(C(=O)CSc1nnnn1-c1ccccc1OC)C1CCS(=O)(=O)C1 (configuration not stated)	-3%	8%
COc1cccc(COc2ncnc3sccc23)c1	0%	18%
Cc1[nH]n(-c2ccccc2)c(=O)c1C(=O)c1ccccc1	0%	3%
CCc1ccc(NC(=O)Cc2cn(C)c3ccccc23)cc1	?	-13%
COc1ccc2c(C)c(CCC(=O)NCCc3ccccc3)c(=O)oc2c1	/	11%
COC(=O)[C@H](CC(C)C)NS(=O)(=O)N(Cc1ccccc1)[C@@H](CC(C)C)C(=O)OC	/	-8%&-28%
Cc1ccc(OCC(=O)N2CC(C)CC(C)C2)c([N+](=O)[O-])n1 (configuration not stated)	/	-1%
CC(=O)Nc1ncc(Cc2cccc(Cl)c2Cl)s1	4%	8%
COc1ccc(Cn2c(=O)[nH]c3cc(C(=O)N4CCN(c5cccc(OC)c5)CC4)ccc3c2=O)cc1	/	20%
O=C(NC1CCCCCCC1)c1ccc(F)c(S(=O)(=O)N2CCOCC2)c1	/	-8%
COc1cc(C)ccc1OCCOCCN(C)Cc1ccccc1	8%	5%
O=C(COc1ccccc1[N+](=O)[O-])NCC1COc2ccccc2O1 (configuration not stated)	/	-1%
CC(C)(C)C(=O)NC(=S)Nc1cc(C(F)(F)F)ccc1N1CCOCC1	19%	-1%
O=C(O)CCCCNS(=O)(=O)/C=C/c1ccccc1	-6%	17%
Cc1cc(=O)oc2cc(OCC(=O)Nc3cccc(S(=O)(=O)N(C)C)c3)ccc12	-3%	0%
O=C(/C=C\c1ccc2c(c1)OCO2)NC1(C(=O)Nc2ccc3c(c2)OCCO3)CCCCC1	2%	7%
O=C(CN1CCN(c2ccc(Cl)cc2)CC1)NCc1cccs1	4%	13%
CCN(CC)S(=O)(=O)c1ccc2c(c1)c(=O)c(C(=O)NCCN(C)CCc1ccccc1)cn2C	-8%	-7%
O=C(CNC(=O)c1ccccc1F)NCc1ccncc1	/	-3%
O=C(/C=C/c1ccccc1)Nc1cc(-c2nc3cc(Cl)ccc3o2)ccc1Cl	/	-2%
O=c1/c(=C/c2ccc(O)cc2)sc2n1CCCN=2	-2%	-5%
O=C(CCCCl)Oc1ccc2cc(-c3ccc4ccccc4n3)c(=O)oc2c1	3%	-6%
O=C(O)c1cc(=O)[nH]c(=O)[nH]1	-9%	/
c1ccc(N2CCN(c3c4c(nc5ncnn35)CCC4)CC2)cc1	1%	-2%
Cc1oc(-c2cc(F)ccc2F)nc1CN1CCN(C)C(=O)[C@@H]1C	5%	-20%
Cc1cccc(Cc2nnc(CCC(=O)N(C)Cc3ccncc3C)o2)c1	-13%	4%
CCOC(=O)c1csc(NC(=O)c2ccc(C#N)cc2)n1	-2%	17%
CCc1nnc(NS(=O)(=O)c2ccc(NC(=O)c3cccc([N+](=O)[O-])c3)cc2)s1	4%	-4%
Cc1ccc(Oc2c(CO)c(-c3ccccc3)nn2C)cc1	14%	16%
O=C(Nc1ccc2ccccc2c1)[C@@H]1C[C@H]1[C@@H](NP(=O)(c1ccccc1)c1ccccc1)c1ccccc1	-2%&4%	3%
Cc1cc2c(c(=O)n1C)C(C(C)C)C(C#N)=C(N)O2 (configuration not stated)	1%	-1%
Cc1nn(-c2ccccc2)c2nc(-c3ccccc3)cc(C(=O)N3CCOCC3)c12	-14%	-19%
Cn1c(SCc2c(Cl)cccc2Cl)nnc1-c1ccc2nonc2c1	-1%	-6%
Clc1ccc(SCCn2ccnc2)cc1	0%	7%
CCn1cc(/C=N\NC(=O)c2c[nH]c3ccccc23)c(C)n1	9%	-17%
CC1=C(C(=O)Nc2ccccn2)C(c2ccc(Cl)cc2Cl)NC(=S)N1 (configuration not stated)	12%	0%
O=C1CSC(c2cccnc2)N1c1ccc(F)cc1 (configuration not stated)	4%	-8%
CCCc1cc(C(=O)Nc2ccc(C(=O)c3ccccc3)cc2)n(C)n1	7%	-10%
COc1ccccc1CNC(=O)CNC(=O)[C@@H]1Cc2ccccc2CN1	1%	19%
